NPYLR7 agonist: activates Aedes aegypti NPYLR7 receptor | 270,000 compounds, 0.15% hits | activation, % at 10 µM | HEK293T NPYLR7/Galpha15, GCaMP6s calcium fluorescence | AID 1259423; in the data active = activation above about 40%;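 also: 0% = vehicle and 100% = reference agonist at the receptor; some compounds past the cut are filed as inactive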
NPYLR7 agonist max-min: second read-out of NPYLR7 agonist, no call of its own (marks repeat the call); activation, %; measured here: Max-Min RFU normalised activation; some inactives read as strong as hits;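 span of the calcium signal over five minutes; 0% = vehicle and 100% = native peptide agonist; compound fluorescence can raise it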
Active calls of the source: *. These rows are one share of the data; rates above refer to the full screens.

Values run as follows: NPYLR7 agonist | NPYLR7 agonist max-min
- Cc1noc(C)c1S(=O)(=O)N1CCN(CC(O)COc2ccccc2F)CC1 (stereo not drawn)
→ 2 | 4
- COCCCN(Cc1cccn1Cc1cccc(F)c1)CC(O)COCc1ccco1 (stereo not drawn)
→ -2 | 3
- O=C(C1CC[C@@H]2CCC[C@H]12)N1CCC(c2ccccc2)CC1 (stereo partly drawn)
→ -3 | -7
- CC1CCC(NC(=O)c2cccc(-c3nn[nH]n3)c2)CC1 (stereo not drawn)
→ 4 | 0
- COc1ccc(-n2nc3c(c2NC(=O)/C=C\c2ccc4c(c2)OCO4)CSC3)cc1
→ -2 | -4
- COc1cccc(C(=O)Nc2cc(-c3cccs3)nn2-c2nc(C)c(C)c(=O)[nH]2)c1OC
→ 1 | 0
- CCC(C)N1C(=O)/C(=C\c2cnn(-c3ccccc3)c2)C(=O)NC1=S (stereo not drawn)
→ 1 | -1
- Nc1ncc(-c2ccccc2CO)cn1
→ 0 | -1
- CC(C)NC(=O)[C@@H]1C[C@H](N)CN1C(=O)c1cccnc1N(C)C1CCCCC1
→ 7 | -11
- CCCCOc1ccc(/C=C2N=C(/C=C\c3cccc([N+](=O)[O-])c3)OC/2=O)cc1
→ -1 | -5
- CC(C)COCCC(=O)Nc1ccc(S(=O)(=O)C(F)F)cc1
→ 11 | 6
- CCOCc1[nH]c(=S)[nH]c(=O)c1Cc1ccc(OC)cc1
→ -10 | -20
- Cc1cccc(C2(C(=O)NCCc3nccn3C)CCCC2)c1
→ -11 | -16
- Cc1ccccc1-c1cc2nc(NCc3ccc(N(C)C)cc3)n(C)c(=O)c2s1
→ 5 | 1
- COc1ccc(-c2ccc(C(=O)NCc3cccc(OC(F)(F)F)c3)s2)c(OC)c1OC
→ 31 | 32
- CCOc1ccc(N2CC(C)Cn3c2nc2c3c(=O)n(C)c(=O)n2C)cc1 (stereo not drawn)
→ -5 | -6
- Cc1nn(-c2ccccc2)c2c1C(c1cccnc1)C(C#N)C(=N)O2 (stereo not drawn)
→ -10 | -9
- COc1ccc(CCN(C)C(=O)CCCNC(=O)OCc2ccccc2)cc1OC
→ -24 | -26
- COc1cccc(C2CC(=O)C(C=Nc3ccc(Br)cc3)=C(O)C2)c1 (stereo not drawn)
→ -6 | -11
- CCc1cccc2sc(N(Cc3ccccn3)C(=O)CCS(=O)(=O)c3ccc(OC)cc3)nc12
→ 1 | -3
- O=C(CSc1nc(=O)[nH]c2c1CCC2)N1CCCC1
→ 0 | -5
- Cn1c(=O)c2c(-c3ccccc3)n3ncccc3c2n(C)c1=O
→ 14 | 3
- COc1ccc(C)c2sc(N(CCN(C)C)C(=O)c3cc(C)nn3C)nc12
→ 0 | 1
- CCOCCOC1CCCN(C(=O)Cc2ccccc2)C1 (stereo not drawn)
→ -6 | -2
- Cn1c(=O)c2c(ncn2CC(=O)Nc2ccnn2C2CCCC2)n(C)c1=O
→ 1 | -1
- CCC(C)N(CC(=O)N(Cc1ccccc1)Cc1ccc(C)s1)C(=O)Nc1cccc(Br)c1 (stereo not drawn)
→ 5 | 11
- CCOC(=O)c1nn(-c2ccccc2C)c(=O)cc1OS(=O)(=O)c1ccccc1
→ -2 | 3
- CSc1nc(-c2ccco2)nn1C(=O)c1cccs1
→ 3 | 0
- Cc1cccc(OCc2nc(C(=O)NCc3cccnc3)cs2)c1C
→ 17 | 12
- Cc1ccc(CN2CCOCC2)cc1NC(=O)Cc1ccc(F)cc1
→ 4 | 3
- C=CC[C@@H]1CC=C[C@@H](C)N1C(=O)C1(Cn2cccn2)CC1
→ 24 | 18
- O=C(O)CNC(=O)C1CC1
→ 10 | 16
- CCOc1ccc(-c2nc(C(N)=O)c3[nH]c(=O)n(-c4cccc(OC)c4)c3n2)cc1OC
→ 13 | 2
- O=C(NCCn1cc(SCC(=O)N2CCOCC2)c2ccccc21)c1ccc(Cl)cc1
→ -1 | -2
- NS(=O)(=O)c1nn2cc(-c3ccccc3)nc2s1
→ -21 | -25
- COc1ccc(CN(C)c2c(C)nc3c(OCC4CCCCC4)cccn23)cc1
→ 8 | -2
- CC(NC1CCN(c2ccc(C(=O)NCc3cccnc3)cc2)CC1)c1cccs1 (stereo not drawn)
→ 7 | 3
- Cc1cc(NC(=O)Cn2c3c(sc2=O)CCCCC3)n(C)n1
→ 5 | 4
- COc1ccccc1CNC(=O)CSc1nccn2nc(-c3ccccc3)cc12
→ -1 | -4
- N#Cc1cccc(S(=O)(=O)NC2CCC3CCCCC3C2)c1 (stereo not drawn)
→ 10 | 6
- CC1CN(C(=O)C(=O)Nc2ccc(F)c(C#N)c2)CC(C)(C)O1 (stereo not drawn)
→ 5 | 2
- C#CC(C)(CC)NC(=O)c1cc2ncc(Br)cn2n1 (stereo not drawn)
→ 1 | 0
- Oc1c2cccnc2cn1CCC(c1ccccc1)c1ccco1 (stereo not drawn)
→ -2 | -7
- CCOC(=O)C(=O)N(C)c1ccc(-c2onc3c2CCc2ccccc2-3)cc1
→ 2 | -3
- Cc1[nH]nc(CCC(=O)N2CCCC3(CC2)CNC(=O)O3)c1C (stereo not drawn)
→ 1 | -3
- CCCCc1cc(=O)[nH]c(-c2ccc(CN3C[C@@H](C)O[C@@H](C)C3)cc2)n1
→ 7 | 0
- O=C(NCCNC(=O)[C@H]1CCCN1C(=O)COc1ccc(Cl)cc1)c1ccccc1
→ -1 | 17
- O=C(CCc1ccccc1)Nc1ccnn1C1CCN(CC2CC=CCC2)CC1 (stereo not drawn)
→ -6 | -13
- Cc1n[nH]c(C)c1CNC(=O)C(C)N(c1ccccc1)S(C)(=O)=O (stereo not drawn)
→ 6 | -5
- COc1ccccc1-n1c(SCc2nc(C(=O)N3CCC(n4c(=O)[nH]c5ccccc54)CC3)cs2)nnc1-c1cccnc1
→ 24 | 29
- COc1ccc(-c2ccc(CCC(=O)NC3CC3)n2-c2ccc(SC)cc2)cc1
→ 0 | -2
- COC(=O)CC(NC(=O)c1cc2ccccc2oc1=O)c1ccccc1 (stereo not drawn)
→ 11 | 2
- COc1ccc(Nc2ncnc3c2cnn3Cc2ccc(C)cc2)cc1
→ 0 | -4
- COc1ccccc1C(=O)C1CCCN(c2ccc(-c3nc(C)no3)cn2)C1 (stereo not drawn)
→ 0 | -8
- COCCCNC(=O)c1nn(-c2ccc(F)cc2)c(=O)n(Cc2ccccc2F)c1=O
→ 9 | 10
- O=C(COc1ccc(Cl)cc1)NNC(=O)C1COc2ccccc2O1 (stereo not drawn)
→ -1 | -4
- CC(=O)Nc1ccc(-n2c(CCC(=O)NCc3c(F)cccc3Cl)ccc2-c2ccc(F)cc2)cc1
→ 0 | 3
- CC(=O)c1ccc(N2CCOc3c(O)cc(-c4nc(C)cnc4C)cc3C2)nc1
→ 22 | 14
- COc1ccc2c(c1)C1(CC(=O)N(Cc3ccccc3)C1=O)C(=O)N2CCCCOc1ccccc1 (stereo not drawn)
→ 10 | 2
- CCC(C(=O)N1CCC2(CC1)NC(=O)c1ccc(Cl)cc1N2)c1ccccc1 (stereo not drawn)
→ -1 | 8

Following part
Values run as follows: NPYLR7 agonist | NPYLR7 agonist max-min
- COc1cc2c(cc1OC)C(CNC(=O)C1CCCC1)N(Cc1ccccc1F)CC2 (stereo not drawn)
→ -2 | 7
- Cc1nc(C)c(CC(=O)N2CCC(O)(c3ccccc3C)C2)c(=O)[nH]1 (stereo not drawn)
→ 10 | 6
- COC(=O)c1cn(CC(=O)Nc2ccc(OC(F)F)cc2)c(C)n1
→ 15 | 11
- CN1CCC2(CCN(C(=O)CN3CCNCC3)CC2)C1
→ 10 | 6
- CN(CCC(=O)NC(N)=O)c1ccc(C(C)(C)C)cc1
→ 0 | -2
- Oc1ccc2ccccc2c1N=Nc1ncn[nH]1
→ 2 | -1
- Cc1c(C(=O)NCC2CCCO2)cnc2c(-c3ccc(C(C)C)cc3)cnn12 (stereo not drawn)
→ 7 | 18
- Cc1ccc(NC(=O)[C@@H]2CCCN2S(=O)(=O)c2ccccc2F)cc1
→ -1 | -2
- CC(C)(C)c1csc(NC(=O)c2cccc3c2OCC(=O)N3)n1
→ 0 | 495
- CCOC(=O)c1nn(-c2ccccc2Cl)c(=O)cc1OCC(=O)Nc1ccc(Cl)cc1
→ 11 | 4
- COCCNC(=O)CSc1nc(-c2cccc(Cl)c2)nc2c1c(=O)n(C)c(=O)n2C
→ -3 | -6
- COc1ccc(C(=O)O)cc1S(=O)(=O)Nc1ccccc1C(=O)N1CCOCC1
→ 5 | 1
- CC(C)CCN(Cc1ccc(OS(C)(=O)=O)cc1)C(=O)c1ccc2c(c1)OCO2
→ -6 | -5
- O=C(NCCNC(=O)c1c(O)c2ccccc2oc1=O)c1c(O)c2ccccc2oc1=O
→ -6 | -16
- O=C(NC1CCc2ccccc21)c1ccc(-c2cccc(C(F)(F)F)c2)s1 (stereo not drawn)
→ 1 | 16
- CC(=O)NCCC1=CCCN(Cc2cc(C(F)(F)F)ccc2F)C1
→ -3 | -4
- COc1cccc2ccc(-c3nccn3CC3CC(=O)N(C4CC4)C3)nc12 (stereo not drawn)
→ 5 | 2
- CCCC(NC)c1ccccn1 (stereo not drawn)
→ 20 | 9
- Cc1cc(Cl)ccc1N1CCN(C(=O)c2ccc(Cl)cc2Cl)C(C)C1=O (stereo not drawn)
→ 0 | 6
- CC1CN(c2ccc(CNc3snc(Cl)c3C#N)cn2)CCO1 (stereo not drawn)
→ -15 | -20

The list goes on (5 carried over from the part before).
Values run as follows: NPYLR7 agonist | NPYLR7 agonist max-min
- CC(=O)NCCC1=CCCN(Cc2cc(C(F)(F)F)ccc2F)C1
→ -3 | -4
- COc1cccc2ccc(-c3nccn3CC3CC(=O)N(C4CC4)C3)nc12 (stereo not drawn)
→ 5 | 2
- CCCC(NC)c1ccccn1 (stereo not drawn)
→ 20 | 9
- Cc1cc(Cl)ccc1N1CCN(C(=O)c2ccc(Cl)cc2Cl)C(C)C1=O (stereo not drawn)
→ 0 | 6
- CC1CN(c2ccc(CNc3snc(Cl)c3C#N)cn2)CCO1 (stereo not drawn)
→ -15 | -20
- Cc1nn(-c2ccccc2)c(C)c1C(=O)N1CCN(S(=O)(=O)c2cc(Cl)ccc2Cl)CC1
→ 10 | 5
- O=C(Nc1ccc(-c2ccn[nH]2)cc1)C1CCCN(Cc2ccon2)C1 (stereo not drawn)
→ -6 | -6
- Cc1c2c(=O)n(-c3nc4ccccc4s3)[nH]c2cc(=O)n1Cc1ccc(F)cc1
→ -4 | -4
- N#CCOc1ccc(Cn2cnc3c(oc4ccccc43)c2=O)cc1
→ 3 | 3
- Nc1nc2cccc(Cl)c2n1Cc1ccccc1
→ 6 | 6
- Cc1ccc(S(=O)(=O)NNC(=O)c2ccncc2)cc1[N+](=O)[O-]
→ -3 | -4
- CCNC(=O)c1cc(S(=O)(=O)N(C)C)ccc1N1CCCCC1
→ 2 | 3
- CCCC(=O)NCC(=O)N1CCCC1(C)C
→ -1 | -8
- CCOC(=O)C1(CCc2ccccc2)CCCN(C(=O)Nc2cccc(C(C)=O)c2)C1 (stereo not drawn)
→ 16 | 10
- CCNC(=O)[C@@H]1C[C@@H](N)CN1S(=O)(=O)c1ccccc1C(F)(F)F
→ 2 | -2
- CCCCCCNC(=O)N1CCN(c2cnccn2)CC1
→ 0 | 0
- Cc1cc2nc(CN(C)Cc3nc(-c4cc5c(cc4Cl)OCO5)oc3C)[nH]c2cc1C
→ 6 | -7
- Cc1nc(NCCNC(=O)Cc2ccccc2)cc(-n2cccn2)n1
→ 35 | 31
- COC(=O)Cc1cc(=O)n2[nH]c(C)c(-c3ccc(Cl)cc3)c2n1
→ -2 | -4
- CC(C)n1nc(-c2cc3cc(O)ccc3[nH]2)c2c(N)ncnc21
→ -10 | -13
- Cc1ccc(-n2[nH]c(C(=O)Nc3ccnc4ccnn34)cc2=O)cc1
→ -1 | -2
- O=C1CC(c2ccccc2)Cc2nc(N3CCN(c4ccccn4)CC3)ncc21 (stereo not drawn)
→ 0 | 0
- COc1ccc(Br)cc1C1CC(c2ccc(F)cc2)=Nc2ncnn21 (stereo not drawn)
→ 0 | -1
- C/C(=C\c1ccccc1)c1c(-c2ccccc2)ncn1CC(O)CO (stereo not drawn)
→ -7 | -11
- OCC1(Cc2ccccc2Cl)CCN(CC#Cc2ccccc2)CC1
→ 4 | 5

An excerpt of these results, as tab-separated lines:
Molecule	NPYLR7 agonist	NPYLR7 agonist max-min
CCOC(=O)C1(CCc2ccccc2)CCCN(C(=O)Nc2cccc(C(C)=O)c2)C1 (stereo not drawn)	16	10
CCNC(=O)[C@@H]1C[C@@H](N)CN1S(=O)(=O)c1ccccc1C(F)(F)F	2	-2

Other structures.
Values run as follows: NPYLR7 agonist | NPYLR7 agonist max-min
- CC(C)CNC(=O)NC(=O)C(C)Sc1nnnn1C1CC1 (stereo not drawn)
→ -2 | -2
- O=C(Nc1cnn(-c2ccc(C(=O)N3CCN(c4ccccc4F)CC3)cc2)c1)C1CCOC1 (stereo not drawn)
→ 2 | -1
- Cc1ccc(NC(=O)NCCCn2ncccc2=O)c(C)c1
→ -9 | -16
- CS(=O)(=O)NC1=NCN(Cc2ccco2)CN1
→ 7 | 5
- COCCN1CCCC(O)(CN2CCC(c3nc(C(C)C)no3)CC2)C1=O (stereo not drawn)
→ 23 | 7
- Cc1ccc(CN(C)Cc2cnc(S(C)(=O)=O)n2CC2CCCO2)o1 (stereo not drawn)
→ 10 | 11
- Cc1ccccc1C1=NOC(CN(Cc2ccccc2)C(=O)NC(C)(C)C)C1 (stereo not drawn)
→ 16 | 23
- CCCn1c(SCc2nc3scc(-c4ccc(C)s4)c3c(=O)[nH]2)n[nH]c1=O
→ 0 | 0
- CCOC(=O)CCc1c(C)nc2ncnn2c1N1CCN(S(=O)(=O)c2sc(NC(C)=O)nc2C)CC1
→ 19 | 8
- CCC(=O)C1CCCN(C(=O)CCc2nnc(CCC3CCCCC3)o2)C1 (stereo not drawn)
→ -10 | -17
- O=C(C1COc2ccccc2O1)N1CC(=O)N(C2CCCCC2)CC(OCc2cccnc2)C1 (stereo not drawn)
→ 9 | -2
- CCCn1c(-c2cccc(C)c2)n[nH]c1=S
→ 2 | 8
- S=c1oc(-c2ccccc2)nn1CN1CCN(Cc2ccccc2)CC1
→ 2 | 7
- O=C(NCc1ccc2c(c1)OCO2)c1ccccc1NS(=O)(=O)c1cc(F)cc(F)c1
→ 20 | 11
- Cc1ccc(NC(=O)CN(C)C(=O)Cn2c(=O)oc3cc(Cl)ccc32)cc1
→ -2 | 5
